RE007 growth inh: less growth of the S. pombe RE007 Vpr strain; 0.21% of 360,000 active; Potency, µM (titrated, usually from 92.2 µM), without a hit: at the top dose activity change, negative = less growth; S. pombe RE007 Vpr strain, BacTiter-Glo ATP luminescence, 24 h; control for the full effect not named in the record; active = well fitted falling curve with a large enough effect; inconclusive = small, poorly fitted or top-dose-only effect; inactive = no such curve, though single readings can be large or run the other way;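 further: on the % scale 0 is the no-effect control and ±100 the full control effect; nearly all actives have a fitted effect of over 50% in size; the assay follows cell death caused by Vpr and the record does not say whether a fall means rescue or toxicity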
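Fission yeast strain RE007, carrying one chromosomally integrated HIV-1 vpr copy, was seeded at OD 0.01 in PMG+AL medium with 23 nL pinned compound. After 24 h at 30 °C and 99% humidity, viability was read by BacTiter-Glo luminescence.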
Cruzain inh Det: inhibitors of Trypanosoma cruzi cruzain with detergent; Potency, µM, inactives show max response, negative = inhibition, most hits filed as inhibitors; 0.43% of 200,000 active; purified cruzain, Z-FR-AMC fluorescence, 0.01% Triton; active means well fitted curve in the direction sought with a large enough effect; inconclusive means small, poorly fitted or top-dose-only effect, or another doubt; inactive means no such curve, though single readings can be large; an effect the other way counts as inactive or inconclusive;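 further: plate controls were neutral wells for no effect and buffer without enzyme for full effect; nearly all actives have a fitted effect of over 40% in size; top concentration of the series not given in the record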
Target sequence (P25779 123-467 limits assumed): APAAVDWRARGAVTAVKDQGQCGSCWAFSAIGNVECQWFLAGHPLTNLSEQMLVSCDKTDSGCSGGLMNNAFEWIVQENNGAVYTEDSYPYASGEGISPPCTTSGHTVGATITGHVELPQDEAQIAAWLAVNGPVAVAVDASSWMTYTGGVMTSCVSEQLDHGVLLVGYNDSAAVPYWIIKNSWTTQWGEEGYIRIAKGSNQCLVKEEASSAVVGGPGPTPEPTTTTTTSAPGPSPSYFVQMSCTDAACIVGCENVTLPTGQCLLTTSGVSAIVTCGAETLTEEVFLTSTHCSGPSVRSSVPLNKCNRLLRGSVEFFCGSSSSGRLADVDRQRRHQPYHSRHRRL
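Enzyme 1.5 nM, Z-FR-AMC 2 uM, NaOAc 100 mM pH 5.5, DTT 5 mM, Triton X-100 0.01%; 15 min RT compound preincubation; kinetic ex360/em450, 60 s delta.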
Cruzain noTriton: inhibitors of Trypanosoma cruzi cruzain without detergent; 2.3% of 200,000 active; purified cruzain, Z-FR-AMC fluorescence, no detergent; P25779; Potency, µM, inactives show max response, negative = inhibition, most hits filed as inhibitors; active means well fitted curve in the direction sought with a large enough effect; inconclusive means small, poorly fitted or top-dose-only effect, or another doubt; inactive means no such curve, though single readings can be large; an effect the other way counts as inactive or inconclusive;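 further: plate controls were enzyme without inhibitor for no effect and buffer without enzyme for full effect; nearly all actives have a fitted effect of over 40% in size; top concentration of the series not given in the record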
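Detergent-free condition (0.00005% Triton X-100) in acetate buffer pH 5.5 with DTT. 1.5 nM enzyme and compound were pre-mixed 15 min, then 2 uM Z-FR-AMC substrate added; reaction progress from fluorescence change between first and third reads (60 s).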
SARS PLP yeast: SARS-CoV PLP inhibition in yeast; S. cerevisiae expressing SARS-CoV PLpro, growth rescue; control for the full effect not named in the record; Potency, µM (doses to about 32.9 µM), for inactives: top-dose activity, positive = growth rescue; 0.19% of 330,000 active; further: 0% is about no effect; nearly all actives have a fitted effect of over 55% in size; growth read by luminescence after 48 h
2A StopGo: lowers the luciferase signal of an FMDV 2A StopGo reporter | human cells with a luciferase reporter of 2A StopGo recoding; control for the full effect not named in the record | Potency, µM (top dose mostly 57.9 µM), for the others: at the top dose signal change, negative = less light | 1.2% of 410,000 active; active = well fitted falling curve with a large enough effect; inconclusive = small, poorly fitted or top-dose-only effect; inactive = no such curve, though single readings can be large or run the other way; tested in HEK293T cells; further: on the % scale 0 is the no-effect control and ±100 the full control effect; nearly all actives have a fitted effect of over 45% in size; luciferase light after 4 h
Lassa entry inh: Lassa virus entry inhibition | Lassa virus pseudotype entry inhibition, cell reporter; control for the full effect not named in the record | Potency, µM (series often up to 37.9 µM), without a hit: at the top dose activity change, negative = inhibition, actives largely listed as inhibitors | 1.2% of 300,000 active | AID 540256; active means well fitted inhibition curve with a large enough effect; inconclusive means small, poorly fitted or top-dose-only effect, or effect the other way; inactive means flat fitted curve, though single readings scatter; tested in HEK293 cells; further: on the % scale 0 is the no-effect control and ±100 the full control effect; nearly all actives have a fitted effect of over 50% in size; luciferase read-out
NS1 function inh: influenza NS1 inhibition; S. cerevisiae slowed by influenza A NS1, growth recovery by OD600; Potency, µM (top dose mostly 46.1 µM), inactives show at the top dose activity, positive = more growth; 0.4% of 270,000 active; AID 2326; further: actives are rising curves; nearly all actives have a fitted effect of over 50% in size
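A cell-based growth assay was used: compounds that relieve NS1-induced slow growth of budding yeast raise OD600. Assay medium was yeast nitrogen base with ammonium sulphate and -URA supplement, pH 6.0, with 2% galactose.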
Marburg entry inh: Marburg virus entry inhibition; Marburg virus pseudotyped entry inhibition, cell reporter; control for the full effect not named in the record; about a third of the inactives were read at about 46 µM; 1.8% of 300,000 active; Potency, µM (highest dose often 37.8 µM), inactives show at the highest dose activity change, negative = inhibition, most hits filed as inhibitors; active = well fitted inhibition curve with a large enough effect; inconclusive = small, poorly fitted or top-dose-only effect, or effect the other way; inactive = flat fitted curve, though single readings scatter; tested in HEK293 cells; about a fifth of its hits are not listed in these tables; further: on the % scale 0 is the no-effect control and ±100 the full control effect; luciferase read-out
An asterisk follows results filed as active; u = inconclusive; x = no result given; [ ] = dose if it differs, or a comment. Unless noted, the call rests on the fitted dose curve; in most records, active means well fitted rising curve with a large enough effect; inconclusive means small, poorly fitted or top-dose-only effect; inactive means no such curve, though single readings can be large or run the other way. Potency means the concentration at half of the fitted maximal effect.

Value order: RE007 growth inh | Cruzain inh Det | Cruzain noTriton | SARS PLP yeast | 2A StopGo | Lassa entry inh | NS1 function inh | Marburg entry inh
C=CCn1cc(C=C2C(=O)N(C)C(=O)N(C)C2=O)c2ccccc21
  4% | x | x | 1% | 2% | x | -2% | x
Cc1ccc(NC(=O)c2nc(S(C)(=O)=O)ncc2N(Cc2ccco2)Cc2ccccc2F)c(C)c1
  x | -3.4% | 1% | x | -23% | 1%[46.1 µM] | x | u
CCOC(=O)c1cccc(NC(=O)CC(c2ccc(F)cc2)N2Cc3ccccc3C2=O)c1 (configuration not stated)
  x | -2.0% | 15% | x | -16% | 15%[46.1 µM] | x | x
CCn1cc(C(=O)NCCCN(CC(C)C)CC(C)C)c(=O)c2cc(S(=O)(=O)N3CCc4ccccc4C3)ccc21
  x | -1.3% | -9% | x | -14% | -5%[46.1 µM] | x | 22%[46.1 µM]
O=C1Nc2ccccc2C1=Nc1ccc(Br)cc1
  -10% | x | x | 0% | -3% | x | -12% | x
CC(C)(C)CC(C)(C)NCC(O)COc1ccc2c(c1)CCC2 (configuration not stated)
  -6% | x | x | x | u | u | x | 7.1µM*
Cc1cc(OC(C)C(=O)NCC(O)c2ccccc2)c2c(C)cc(=O)oc2c1 (configuration not stated)
  -3% | x | x | -6% | -9% | x | -1% | x
COc1ccc(Br)cc1C(=O)Nc1nc2ccc(F)cc2s1
  x | -14% | -9% | x | 60%[activator] | 8%[46.1 µM] | x | u
Cc1ccccc1NC1=C(C(=O)c2ccccc2)N(C)S(=O)(=O)c2ccccc21
  -13% | -2.9% | u | -7% | -21% | 2% | -52% | 4%[46.1 µM]
CCOC(=O)C1=C(CS(=O)(=O)c2ccc(F)cc2)NC(=O)NC1c1cc(OC)c(O)c(OC)c1 (configuration not stated)
  0% | x | x | -1% | 1% | x | 8% | x
C=CCn1c(SCC(=O)NC2CCCC2)nnc1-c1ccncc1
  19% | x | x | -4% | -17% | 2% | -3% | 5%
CCOC(=O)c1sc(-c2ccccc2)cc1NC(=O)c1ccc(S(=O)(=O)N(CCOC)CCOC)cc1
  17% | -10% | u | 6% | 0% | 13% | 4% | 9%
CCCCN(C)C(=O)CCCCn1c(=O)[nH]c2cc(OCC)c(OCC)cc2c1=O
  9% | 2.5% | u | 4% | -11% | -30% | -2% | -4%
CCCCCC(=O)Nc1ccc(S(=O)(=O)Nc2ccc(Cl)nn2)cc1
  -2% | -2.5% | 1% | -12% | 9% | -29% | 2% | 13%[46.1 µM]
CCc1ccc(NC(=O)Cn2c(=O)c(-c3ccccc3NC(C)=O)nc3ccccc32)cc1
  x | -2.0% | -21% | x | -15% | 8%[46.1 µM] | x | -1%[46.1 µM]
Clc1ccc(-c2cc3ccccc3nc2N2CCCC2)cc1
  -28% | -5.0% | -3% | 3% | 0% | 1% | -11% | u
NC(=O)CC(NC(=O)c1ccccc1)c1ccc(NCc2ccc(F)cc2)c([N+](=O)[O-])c1 (configuration not stated)
  -8% | x | x | 8% | -27% | x | 0% | x
Cc1csc(NC(=O)CSc2nc3nc(C)cc(C)n3n2)n1
  3% | x | x | 3% | -9% | 3% | x | 17%
O=C(NNC1CC(=O)N(c2ccccc2)C1=O)c1ccc(COc2ccccc2Cl)o1 (configuration not stated)
  -4% | -7.1% | 17% | -9% | -2% | -8% | 0% | 1%
Cc1noc(C)c1CSc1nnc(-c2ccccc2)n1Cc1ccco1
  -6% | 3.2% | -2% | -5% | 0% | 5% | 1% | -8%

Quoted from the listing (3 entries):
Value order: RE007 growth inh | Cruzain inh Det | Cruzain noTriton | SARS PLP yeast | 2A StopGo | Lassa entry inh | NS1 function inh | Marburg entry inh
Cc1csc(NC(=O)CSc2nc3nc(C)cc(C)n3n2)n1
  3% | x | x | 3% | -9% | 3% | x | 17%
O=C(NNC1CC(=O)N(c2ccccc2)C1=O)c1ccc(COc2ccccc2Cl)o1 (configuration not stated)
  -4% | -7.1% | 17% | -9% | -2% | -8% | 0% | 1%
Cc1noc(C)c1CSc1nnc(-c2ccccc2)n1Cc1ccco1
  -6% | 3.2% | -2% | -5% | 0% | 5% | 1% | -8%

(cont.)
Value order: RE007 growth inh | Cruzain inh Det | Cruzain noTriton | SARS PLP yeast | 2A StopGo | Lassa entry inh | NS1 function inh | Marburg entry inh
CN(C)/C=C/C(=O)c1ccc([N+](=O)[O-])c(CS(=O)(=O)c2ccc(Cl)cc2)c1
  5% | x | x | -2% | -11% | -6%[46.1 µM] | 16% | u
CCOC(=O)c1c(NC(=O)CSc2nncs2)sc(C)c1C
  0% | -4.0% | -12% | 5% | 6% | 14% | -4% | 16%
COc1cc(C(=O)Nc2ccc3c(c2)OCO3)ccc1-n1cnnn1
  -5% | -3.8% | -12% | -3% | 5% | 5% | 4% | 12%
Cc1cc(Br)ccc1OCc1nc(-c2cccnc2)no1
  -10% | -4.9% | -9% | -2% | 24% | 12% | u | 19%
Cc1cc(C)cc(OC(C)C(=O)Nc2ccc3c(c2)n(C)c(=O)n3C)c1 (configuration not stated)
  -13% | x | x | -8% | -1% | x | -11% | x
COCCCN(C(=O)Cc1coc2cc(C)c(C)cc12)c1c(N)n(Cc2ccccc2)c(=O)[nH]c1=O
  4% | x | x | 6% | -13% | -23% | x | -10%[46.1 µM]
Cc1cc(C(=O)N/N=C/c2cc(Br)c(Br)o2)n[nH]1
  -10% | x | x | 1% | 4% | 11%[46.1 µM] | -22% | u
CCn1cc(CCC(=O)NCCN2CCOCC2)c2ccccc21
  4% | x | x | 0% | -17% | -31% | 2% | 11%
COc1ccc(C(=O)CN2C(=O)c3ccccc3S2(=O)=O)cc1
  -5% | x | x | -1% | 5.6µM* | u | -3% | u
Cn1cnc(S(=O)(=O)N2CCN(c3ccc(Cl)cc3)CC2)c1
  -2% | x | x | 2% | -20% | x | 14% | x
O=C(CCl)NN1C(=O)NC(c2ccccc2)(c2ccccc2)C1=O
  -6% | x | x | 3% | u | u | -5% | u
Cc1ccc(C)c(OC(=O)CSc2nnc(-c3cccs3)o2)c1
  x | -3.6% | -14% | x | -11% | 17%[46.1 µM] | x | 13%[46.1 µM]
Cc1ccc(NC(=O)CC2NCCNC2=O)cc1Cl (configuration not stated)
  4% | x | x | 1% | 5% | x | 0% | x
CC1CCC/C(=N/Nc2nc3ccccc3s2)C1 (configuration not stated)
  -7% | x | x | -7% | -17% | 15% | 9% | -10%
Cc1nn(CCOc2ccccc2)c(=O)n1-c1ccc(F)cc1
  0% | 6.8% | -2% | 5% | 64%[activator] | u | 5% | -5%
COc1ccc(NC(=O)N2CCCC(C(=O)Nc3cccc(C)c3C)C2)cc1 (configuration not stated)
  -16% | x | x | 1% | -10% | -3%[46.1 µM] | 3% | -7%[46.1 µM]
O=C(CCC(=O)n1ncc2ccccc21)NCc1ccccc1Cl
  -1% | x | x | -5% | -20% | x | 1% | x
Cc1cc(NC(=S)NC(=O)C2CC2)ccc1Br
  u | -11% | -11% | -58% | 52%[activator] | -1% | 6% | 27%
COc1ccc(CN(C)Cc2nc3cc(OC)c(OC)cc3c(=O)[nH]2)c(OC)c1
  -6% | x | x | 0% | -6% | -11%[46.1 µM] | -1% | u
O=C(/C=C/c1ccccc1)Nc1ccc(C(=O)N2CCCCC2)cc1
  4% | x | x | -1% | 13% | -11%[46.1 µM] | -5% | u
Cc1ccc(CNC(=O)c2oc3c(c2C)-c2nn(Cc4ccc(Cl)cc4)cc2CC3)cc1
  x | -3.4% | 1% | x | -27% | 2%[46.1 µM] | x | x
CCC1=NN(C(=O)c2ccc([N+](=O)[O-])cc2)C(O)(c2ccccc2)C1 (configuration not stated)
  20% | x | x | 3% | -14% | u | 7% | u
COc1ccccc1CCC(=O)Oc1ccc(C#N)cc1OC
  9% | x | x | -1% | -9% | 14%[46.1 µM] | 21% | -10%[46.1 µM]
Cc1ccc(CNC(=O)N2CCN(S(=O)(=O)c3ccccc3)CC2)cc1
  -20% | x | x | 0% | -6% | u | 3% | u
CCOc1ccc(NC(=O)c2oc3ccccc3c2NC(=O)c2cc(C)cc(C)c2)cc1
  x | -0.6% | 1% | x | -13% | 2%[46.1 µM] | x | -8%[46.1 µM]
COc1ccc(-c2nc(CN(C)C(C)c3ccon3)c(C)o2)c(C)c1C (configuration not stated)
  -7% | x | x | 3% | -29% | -35% | 0% | u
Cc1ccc(NC(=O)CSc2nnc(CNC(=O)c3ccccc3F)o2)cc1Cl
  14% | x | x | 21% | -4% | 29%[46.1 µM] | 22% | 22%[46.1 µM]
COc1ccccc1NC(=O)[C@@H]1CCCN1S(=O)(=O)c1ccc(Cl)cc1
  17% | x | x | -13% | 0% | 2% | x | u
CCc1ccc(C(=O)CN2C(=O)NC(C)(CCc3ccccc3)C2=O)cc1 (configuration not stated)
  1% | -9.5% | 3% | -1% | 0% | 0% | -8% | 11%
O=C(c1noc2c1CCCCC2)N1CCN(c2cccc(C(F)(F)F)c2)CC1
  x | -14% | 19% | x | -15% | -11%[46.1 µM] | x | x
CSC1=C(C#N)C(c2ccncc2)C(C(=O)Nc2ccccc2)=C(C)N1 (configuration not stated)
  6% | x | x | 8% | -15% | 3%[46.1 µM] | x | u
CCCCN(CC)Cc1ccc(CNC(=S)Nc2cccc(F)c2)o1
  -27% | x | x | -2% | -14% | 20% | x | u
C=CCNC(=O)CC1C(=O)NCCN1Cc1c(F)cccc1Cl (configuration not stated)
  -3% | x | x | 1% | -19% | x | 0% | x
CCC(=O)N1CCc2cc(Br)cc(S(=O)(=O)Nc3ccc(C)cc3C)c21
  x | -0.1% | -1% | x | 0% | 5%[46.1 µM] | x | x
COCCNC(=O)[C@@]1(C)C=C[C@@H](Cc2ccccc2)N1C(=O)c1ccccc1
  -8% | -1.7% | -7% | 10% | 55%[activator] | x | -11% | x
O=C(OCc1nnc(-c2ccccc2)o1)c1ccc2ccccc2n1
  3% | 0.9% | -7% | -11% | 29% | 15% | -31% | -14%
CN1CCN(CC(=O)Nc2cc(N3CCOCC3)ccc2[N+](=O)[O-])CC1
  -5% | -7.2% | -2% | -12% | -7% | 0% | 2% | -2%

High-throughput results as filed in PubChem.

The order is random; 4.5% or so of the library scored in one or more.
